Bioassay records from PubChem.
UCH37 inh – blocks the human deubiquitinase UCH37; purified proteasome/UCH37, Ub-AMC cleavage fluorescence; inhibition, % (no concentration beside the values); actives 0.33% (n = 330,000); AID 588478;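 active means mean of two replicates above 20%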;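 further: 0% = compound-free wells with enzyme and 100% = wells lacking proteasome; stock transfer was 100 nL into about 20 µL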
Target sequence (Q9Y5K5 whole entry, looked up): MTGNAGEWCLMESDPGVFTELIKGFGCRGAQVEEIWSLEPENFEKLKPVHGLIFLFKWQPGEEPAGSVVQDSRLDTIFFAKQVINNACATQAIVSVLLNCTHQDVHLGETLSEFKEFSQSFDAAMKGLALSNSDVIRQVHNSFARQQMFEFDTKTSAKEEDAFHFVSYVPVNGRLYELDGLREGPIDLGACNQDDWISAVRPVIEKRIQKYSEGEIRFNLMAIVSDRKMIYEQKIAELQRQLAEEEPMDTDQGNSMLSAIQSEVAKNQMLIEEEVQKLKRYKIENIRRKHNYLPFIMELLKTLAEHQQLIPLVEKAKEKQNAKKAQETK
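Reagent: Ub-AMC substrate; assay system: Proteasome-associated human UCH37 deubiquitinase; controls: no-proteasome and no-compound wells; read-out: % inhibition of Ub-AMC cleavage fluorescence; timing: 30 min preincubation with enzyme, 25 min cleavage at room temperature; signal: AMC fluorescence from Ub-AMC cleavage, excitation 355 nm, emission 460 nm; buffer or medium: Tris-HCl pH 7.4 plus ovalbumin, ATP-MgCl2, DTT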
Ecoli growth – E. coli growth inhibition. actives 0.21% (n = 330,000). Escherichia coli growth, OD600, 23 h; stronger effect = lower value. OD600 absorbance (test concentration not listed);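 active means OD600 absorbance below the run mean of sample wells minus 3.6 SD, in any replicate, cut at about 0.56 in these data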;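 further: stock transfer was 300 nL into about 60 µL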
HNF4A DNA FP – change in binding of human HNF4 alpha to DNA. P41235. HNF4a-FITC DNA binding, fluorescence polarization, 1 h. activity change, % at 10 µM. actives 0.3% (n = 360,000); in the data active means activity change above about 30%, passing the limit was not always enough;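 further: controls were the assay level and a saturating level of protein; the project sought stronger binding though the title names inhibitors; some compounds called inactive have numbers as strong as hits; positive values seem to mean higher polarization but the record does not say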
FGF22 binding – binders of recombinant human FGF22 by thermal shift; Q9HCT0; SYPRO orange fluorescence; percent of sucrose octasulfate shift, DMSO zero; calls only at 9.99 µM; actives 1.5% (n = 340,000);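 active means melting point raised past a set limit in the mean and every replicate; inconclusive means no clear call; three in four hits are not shown here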
Target sequence (Q9HCT0 whole entry, looked up): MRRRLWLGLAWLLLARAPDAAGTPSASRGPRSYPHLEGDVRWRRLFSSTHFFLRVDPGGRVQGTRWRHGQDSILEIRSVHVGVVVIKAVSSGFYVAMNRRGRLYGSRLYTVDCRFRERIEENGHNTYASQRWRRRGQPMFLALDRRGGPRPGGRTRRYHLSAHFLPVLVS
Vif A3G – HIV-1 Vif–A3G interaction blockers – biochemical, TR-FRET, GST-Vif 1-94, biotin-A3G peptide, dose response retest, primary screen (AID 1117319) | actives 0.57% (n = 260,000) | TR-FRET GST-Vif / biotin-A3G peptide binding; higher % means a stronger effect; test concentration not given here; strong numbers were not always called active | one-dose inhibition, %; IC50 in µM for titrated hits;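 active means above the screen mean plus three standard deviations and confirmed in dose response; inconclusive means results disagree or hit not tested in dose response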;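 further: Vif residues 1-94 fused to GST binding biotinylated APOBEC3G peptide 110-148; 0% = full assay without inhibitor and 100% = GST in place of GST-Vif; retest series ran down from 100 µM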
RanGTP-Imp inh – disruptors of Ran-importin-beta complex formation – biochemical, FRET, CFP-Ran, YFP-importin-beta, homogeneous, primary screen | cell-free CFP-Ran/YFP-importin-beta FRET ratio | inhibition, % (test concentration not listed) | actives 1.1% (n = 300,000);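 active means most replicates above 15%; inconclusive means exactly half above 15%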;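 further: 0% = DMSO wells and 100% = Ran loaded with GDP instead of GTP; wells of about 40 µL received 100 nL stock; the first replicate is given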
MLL AF4-AF9 inh – MLL-AF4/AF9 protein interaction inhibition; P42568; AlphaScreen, biotin-AF4 peptide binding to FLAG-AF9; inhibition, % at 10 µM; actives 0.47% (n = 350,000);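 active means every replicate reaching a set inhibition limit, whatever the replicate mean, cut at about 25% in these data; inconclusive means mean inhibition reaches that limit but some replicates miss it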;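 further: 0% = plate neutral control median and 100% = total signal loss; the record names both 10 and 1 µM as test concentration; the first replicate is given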
Target sequence (P42568 whole entry, looked up): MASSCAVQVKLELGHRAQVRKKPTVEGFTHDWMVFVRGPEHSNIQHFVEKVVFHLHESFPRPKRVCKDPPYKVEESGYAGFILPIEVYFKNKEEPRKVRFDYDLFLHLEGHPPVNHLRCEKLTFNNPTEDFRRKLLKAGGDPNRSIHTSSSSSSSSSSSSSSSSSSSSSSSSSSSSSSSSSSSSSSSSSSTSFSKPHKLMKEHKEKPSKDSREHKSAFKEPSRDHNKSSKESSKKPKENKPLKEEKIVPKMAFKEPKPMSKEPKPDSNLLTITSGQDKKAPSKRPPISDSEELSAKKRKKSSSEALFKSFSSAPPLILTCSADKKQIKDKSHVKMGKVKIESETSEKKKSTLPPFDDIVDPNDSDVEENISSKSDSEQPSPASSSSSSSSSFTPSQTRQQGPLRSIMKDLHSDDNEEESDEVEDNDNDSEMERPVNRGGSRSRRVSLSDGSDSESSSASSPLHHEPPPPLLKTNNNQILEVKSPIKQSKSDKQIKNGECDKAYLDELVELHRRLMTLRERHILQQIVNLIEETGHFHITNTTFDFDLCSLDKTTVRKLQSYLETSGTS
* marks the source's active call; other numbers are inactive results; i = inactive; ? = inconclusive; . = no result given; & = joins results of further samples. An excerpt, so the mix of outcomes need not match the whole.

SMILES	UCH37 inh	Ecoli growth	HNF4A DNA FP	FGF22 binding	Vif A3G	RanGTP-Imp inh	MLL AF4-AF9 inh
O=C(/C=C\c1ccc2c(c1)OCO2)NC1(C(=O)Nc2ccc3c(c2)OCCO3)CCCCC1	-8.3	0.69	1.1	.	.	?	.
CC1(C)CC(=O)C=C(c2ccc(Oc3ccccc3)cc2)C1	-1.8	0.66	-2.3	i	.	.	0.1
Cn1cc(CN2CCN(c3cnccn3)CC2)c(-c2cccc(Cl)c2)n1	-5.7	0.7	-1.4	i	21%	-0.8	5.8
CCCCN(C(=O)COc1ccc(C)cc1OC)c1c(N)n(CCC)c(=O)[nH]c1=O	3.2	0.71	1.6	.	27%	0.1	2.8
CCOCCOC(=O)c1[nH]c2c(c1C)C(=O)CC(c1ccccc1)C2 (centres undefined)	0.4	0.66	-3.2	i	8%	-1.0	2.5
COc1ccc(-c2nnc3c4ccccc4c(C)nn23)cc1	3.5	0.69	6.3	.	-6%	3.8	.
Cn1c(N)c(C(=O)COC(=O)CCCc2nc3ccccc3s2)c(=O)n(C)c1=O	-0.2	0.69	0.3	.	.	-0.8	0.4
C=CCOC(=O)N1CCN(c2cccc(C(F)(F)F)c2)CC1	3.4	0.66	0.1	.	1%	5.3	.
COc1ccc(-c2csc(N(CCCN(C)C)C(=O)c3cccs3)n2)cc1	5.2	0.7	1.4	.	14%	-1.3	.
COc1cccc(NC(=O)CN2CCN(c3ccccc3F)CC2)c1	2.4	0.78	1.6	.	3%	-1.3	.
CCOc1ccccc1N(CC(=O)Nc1cccc2ccccc12)S(C)(=O)=O	0.4	0.73	1.9	i	.	1.3	-1.4
CC(C)(C)C(=O)NC(=S)N1CCOCC1	2.5	0.68	-2.5	i	.	-1.2	-3.6
Cc1ncc(CC(=O)n2cc(C(=O)c3cc(Cl)ccc3O)cn2)s1	-42	0.7	0.9	.	4%	-3.7	.
Cc1cc(NC(=O)COC(=O)[C@@H](NS(=O)(=O)c2ccc(Br)cc2)C(C)C)no1	4.5	0.71	-1.3	i	.	2.5	1.7
CCCS(=O)(=O)N1CCN(c2cc3c(cc2[N+](=O)[O-])n(C)c(=O)n3C)CC1	10	0.66	-0.8	i	.	0.2	0.2
COc1ccc(C(CC(=O)O)NC(=O)c2ccccc2)cc1OC (centres undefined)	0.2	0.74	2.9	.	2%	-2.6	.
CCOc1ccc2nc(COC(=O)c3ccco3)c(C(C)=O)[n+]([O-])c2c1	-11	0.75	0.2	.	0%	2.1	.
CC(C)C(NC(=O)c1ccccc1)C(=O)OCC(=O)N1CCN(c2ccccc2)CC1 (centres undefined)	-0.1	0.68	-1.2	i	10%	.	8.4
CCc1cccc(NC(=O)C2CCN(S(=O)(=O)c3cccs3)CC2)c1	5.2	0.71	2.5	i	3%	1.7	-5.3
O=C(Nc1ccccc1)NC(Cc1ccc(O)cc1)C(=O)O (centres undefined)	1.3	0.67	0.3	i	7%	3.1	-2.3
O=C1NC[C@H](CCCCN2CCN(CCC3CCCCC3)C(=O)C2=O)N(CCC2CCCCC2)C1=O	.	.	1.1	i	.	.	1.6
COc1ccc(OC)c(N(CC(=O)Nc2ccccc2)S(C)(=O)=O)c1	1.6	0.67	-0.2	i	2%	-0.7	1.9
CC(C)CC(=O)Nc1ccc(C(=O)Nc2cccc(O)c2)cc1	0.2	0.69	-1.1	i	3%	3.3	1.0
CC1CCN(S(=O)(=O)N2CCC(C(=O)O)CC2)CC1	3.7	0.67	-5.0	.	1%	2.1	.
O=C(O)/C=C/C(=O)NC1CCC(CC2CCC(NC(=O)/C=C/C(=O)O)CC2)CC1 (centres undefined)	-1.5	0.64	1.6	i	26%	8.3	-3.2
Next part:
SMILES	UCH37 inh	Ecoli growth	HNF4A DNA FP	FGF22 binding	Vif A3G	RanGTP-Imp inh	MLL AF4-AF9 inh
CC(C)Oc1ccc(C2NC(=O)c3ccccc3O2)cc1 (centres undefined)	0.4	0.64	-0.5	i	.	4.0	1.5
O=C(Nc1cc(C(F)(F)F)ccc1N1CCOCC1)c1ccccc1	3.7	0.71	3.0	.	-11%	-2.0	.
CN(CC(=O)Nc1cccc(Cl)c1)C1=NS(=O)(=O)c2ccccc21	5.8	0.71	-1.0	i	3%	.	0.6
COc1ccc(OC)c(N2C(=NC(=O)C3CCCCC3)SC3CS(=O)(=O)CC32)c1 (centres undefined)	5.0	0.72	1.1	i	2%	1.6	1.3
COc1cc(NC(=O)CSc2ncnc3sc4c(c23)CCCC4)c(C(=O)O)cc1OC	5.2	0.7	1.2	i	-6%	2.4	-1.8
O=c1[nH]c2ccc(S(=O)(=O)N3CCN(Cc4ccccc4)CC3)cc2[nH]c1=O	-5.1	0.66	-2.1	i	27%	-0.5	2.6
Cc1ccccc1S(=O)(=O)N1C[C@H]2[C@H]3C(=O)N(C4CCCCC4)C(=O)[C@H]3CC(=O)[C@H]2[C@@H]1c1ccc(Cl)cc1	.	.	0.1	i	.	.	2.6
CN(C)NC(=O)c1ccsc1NC(=O)c1ccc(S(=O)(=O)N(C)C)cc1	12	0.76	6.2	i	.	-0.7	4.3
CCc1nnc(NC(=O)CSc2nnc(COc3ccccc3)n2Cc2ccccc2)s1	5.1	0.72	-1.6	.	5%&-3%	-6.5	.
CCCCCn1ccc(=O)c2c(C(F)(F)F)nccc21	0.3	0.69	-4.2	.	25%	-1.9	.
COc1ccc(N=c2sc3ccccc3n2C)cc1	1.5	0.64	1.1	.	5%	1.3	.
COc1ccc(S(=O)(=O)N2CCC(C)CC2)cc1OC	3.2	0.68	-0.1	i	.	0.2	1.4
CCOc1ccc(NC(=O)c2cc(C3CC3)nc3c2cnn3C(C)C)cc1OC	3.5	0.68	-1.9	i	.	.	2.0
O=C(N/N=C/c1cccc(OCc2ccccc2)c1)c1ccc(Br)o1	.	.	4.5	i	-20%	3.0	-0.7
Cc1[nH]n(-c2ccccc2)c(=O)c1C(c1ccccc1[N+](=O)[O-])C(C#N)C#N (centres undefined)	4.5	0.62	3.1	i	4%	-2.9	5.5
Cn1c(Cn2c(=O)sc3ccccc32)nnc1SCC(=O)NCc1ccccc1Cl	1.2	0.76	0.1	i	7%	4.6	-1.9
COC(=O)c1nnn(CC(=O)NC(=O)Nc2ccc(F)cc2)c1C(=O)OC	.	.	0.9	i	31%	-0.3	-0.1
COc1cc(OC)c(C(=O)N/N=C/c2ccoc2)cc1OC	.	.	1.5	i	.	-2.0	-0.9
O=C(c1ccc2c3c(cccc13)CC2)C1CCCN(C(=O)c2ccc(=O)[nH]c2)C1 (centres undefined)	-117	0.67	-0.7	i	4%	-4.1	-0.1
Nc1ccc(S(=O)(=O)N2CCOCCOCCOCCOCCOCC2)cc1	0.8	0.65	-2.6	i	2%	6.9	1.5
O=C(COC(=O)c1cc2c(s1)CCC2)Nc1ccc(F)cc1	-6.7	0.68	-18	i	.	-0.4	-12
Fc1ccc(-c2nc3ccc(Cl)cn3c2Cc2ccccc2C(F)(F)F)cc1	.	.	6.5	i	.	.	-1.5
O=C(NC12CC3CC(CC(C3)C1)C2)c1cccc([N+](=O)[O-])c1	-0.1	0.67	-0.2	i	.	2.4	3.7
O=C(CS(=O)(=O)c1cn(CC(=O)N2CCOCC2)c2ccccc12)NCc1ccccc1	0.2	0.75	4.9	i	0%	-0.9	-0.2
O=C(c1ccc2ccccc2c1)N1CCCC1	1.3	0.64	-1.2	i	.	-1.5	-1.8
Continued:
SMILES	UCH37 inh	Ecoli growth	HNF4A DNA FP	FGF22 binding	Vif A3G	RanGTP-Imp inh	MLL AF4-AF9 inh
Cc1cc[n+](CC2OCc3ccccc3CO2)cc1	0.7	0.67	5.4	i	28%	-1.5	0.6
CCOC(=O)[C@H]1[C@H]2COc3ccc(Br)cc3[C@@H]2N2C(=O)c3c(C)cc(C)cc3NC(=O)[C@@]12C	-0.7	.	-3.2	i	.	.	1.3
COc1ccc(CNC(=O)NC2CCCCC2)cc1	3.7	0.73	-0.4	i	18%	1.2	9.3
O=C(CCc1ccccc1)Nc1ccnn1C1CCN(Cc2ccc(OCCO)cc2)CC1	1.8	0.69	0.0	i	-1%	2.4	1.2
CC1CCC(NC(=O)CN(C)S(=O)(=O)c2cnc[nH]2)CC1 (centres undefined)	3.5	0.69	-2.7	i	13%	6.1	-2.0
O=C(Cc1ccc(Cl)cc1)Nc1ccc(N2CCCC2)cc1	6.6	0.81	3.2	.	2%	0.8	.
Cc1c(C(=O)NCCCc2ccccc2)cccc1[N+](=O)[O-]	1.4	0.65	-0.3	i	.	1.4	7.3
Nc1nc(Oc2ccc(F)cc2)c(Br)c(=O)[nH]1	1.0	0.62	-3.8	i	.	3.2	-8.0
Cc1ccc(C)c2[nH]c(=O)c(CN(CC3CCCO3)C(=S)NCc3ccco3)cc12 (centres undefined)	-1.4	0.69	-2.8	i	.	0.3	4.7
Cc1ccc(Cc2c(-c3cccc(Br)c3)nc3ccc(Cl)cn23)cc1	.	.	12	.	.	.	1.7
O=C(NNC(=S)Nc1ccc(F)c(Cl)c1)C1CC1	0.2	0.64	4.0	i	-3%	-0.4	-2.6
COC(=O)c1ccc(NC(=S)NCCc2ccc(OC)cc2)cc1	1.2	0.72	-7.3	.	-5%	2.0	-2.0
O=C(OCC(=O)N1CCCC1=O)c1cc2ccccc2o1	.	.	1.2	i	0%	.	-3.8
Cc1ccc(CN2C(=O)COc3cc(NS(C)(=O)=O)ccc32)cc1	.	.	4.4	i	6%	.	-0.8
O=C(CN1C(=O)/C(=C/c2ccccc2)SC1=S)NC1CCS(=O)(=O)C1 (centres undefined)	7.9	0.73	2.8	i	.	1.2	0.6
Cc1ccc(S(=O)(=O)N2CN(CC3CCCO3)c3nc4ccccc4nc32)c(C)c1 (centres undefined)	-27	0.7	-1.6	i	.	1.5	-6.3
CC(=O)N1CCN(C(=O)CSc2ncnc3sc(C)c(C)c23)CC1	2.4	0.72	1.6	i	-3%	.	-1.5
CCOc1ccc(-n2c(N)c(C(=O)NCc3ccco3)sc2=S)cc1	3.7	0.69	-1.0	.	4%	4.6	.
O=C(O)c1ccc(NC(=O)c2cccs2)cc1	5.1	0.73	-2.5	.	13%	6.9	.
O=C(Cn1c(NCCCO)nc2ccccc21)c1ccc(Cl)cc1	2.3	0.67	-0.8	.	.	6.0	2.9
O=[N+]([O-])c1ccc(Cl)c(S(=O)(=O)NCCc2ccccn2)c1	0.3	0.66	-0.4	i	.	.	-4.2
CCc1ccc(CN(C)C(=O)CCc2nnc(-c3ccc(-c4ccccc4)cc3)o2)nc1	0.8	0.68	-4.7	i	13%	-3.0	-2.1
CCOC(=O)C1(CCOc2ccccc2)CCN(Cc2ccc(C)o2)CC1	-1.3	0.65	7.6	i	7%	1.6	-0.8
COc1ccc2ccc(Oc3ncccn3)cc2c1	4.6	0.74	0.9	.	-7%	-0.9	.

Gathered by group: the entries above with bromine (5)
SMILES	UCH37 inh	Ecoli growth	HNF4A DNA FP	FGF22 binding	Vif A3G	RanGTP-Imp inh	MLL AF4-AF9 inh
Cc1cc(NC(=O)COC(=O)[C@@H](NS(=O)(=O)c2ccc(Br)cc2)C(C)C)no1	4.5	0.71	-1.3	i	.	2.5	1.7
O=C(N/N=C/c1cccc(OCc2ccccc2)c1)c1ccc(Br)o1	.	.	4.5	i	-20%	3.0	-0.7
CCOC(=O)[C@H]1[C@H]2COc3ccc(Br)cc3[C@@H]2N2C(=O)c3c(C)cc(C)cc3NC(=O)[C@@]12C	-0.7	.	-3.2	i	.	.	1.3
Nc1nc(Oc2ccc(F)cc2)c(Br)c(=O)[nH]1	1.0	0.62	-3.8	i	.	3.2	-8.0
Cc1ccc(Cc2c(-c3cccc(Br)c3)nc3ccc(Cl)cn23)cc1	.	.	12	.	.	.	1.7
